# Screening results as filed in PubChem BioAssay.
# CDC25B-CDK2 inh – human CDC25B-CDK2/CyclinA binding inhibition. HTRF CDC25B-CDK2/CyclinA binding, anti-His/anti-Flag; hits give high values. z-score (concentration not given with the values). 94,000 compounds, 0.72% hits. P30305+P24941;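 note: score is relative to mean and SD of negative controls; strong numbers were not always called active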
# TAR Tat displ – HIV-1 TAR-Tat binding disruption | z-score (concentration not given with the values) | 100,000 compounds, 0.6% hits | HIV-1 TAR RNA, Tat peptide displacement FRET; hits give high values;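 note: score is relative to mean and SD of negative controls; some compounds called inactive have numbers as strong as hits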
# * marks the source's active call; other numbers are inactive results; . = no result given.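 Rule for the calls: active = z-score from 3 up in half or more of its runs; inactive = the rest.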
molecule,CDC25B-CDK2 inh,TAR Tat displ
O=C1CSC(c2cccc(NS(=O)(=O)c3cccc4cccnc34)c2)N1 (configuration not stated),.,1.5
O=C(NC1CCCC1)c1nn2c(c1Cl)NC(c1ccccc1)CC2C(F)(F)F (configuration not stated),-1.6,2.7
CCCc1[nH]nc2c1C(c1ccc(F)cc1)C(C#N)=C(N)O2 (configuration not stated),-0.68,0.79
CN(CCCNC(=O)Cn1ncc2c3ccccc3n(C)c2c1=O)Cc1ccccc1,-0.44,3
Cc1nc(OCCOc2ccccc2)c2oc3ccccc3c2n1,.,0.55
Cc1cccc(OCCn2c(C3CCCO3)nc3ccccc32)c1 (configuration not stated),-0.68,0.55
Cc1cn2c(=O)c(S(=O)(=O)NC3CCCCC3)c(C)nc2s1,.,0.44
CC(=O)NC1=NN(C(C)=O)C(c2ccc(OCCOc3cc(C)ccc3C(C)C)cc2)S1 (configuration not stated),0.5,2.2
CN(N)C(=NC(C)(C)C)SCC(=O)c1ccc(Cl)cc1,-0.42,.
CCCCCN1C(=O)CC(C)Nc2ccccc21 (configuration not stated),-1.4,-1.3
C=CCC(C)(NCc1ccccc1)c1cccs1 (configuration not stated),-0.14,1.6
Cc1cccn2c(=O)c3cc(C(=O)NCC(C)C)sc3nc12,0.3,.
COc1ccc2c(c1)CC(NC(=O)Nc1ccc(F)c(F)c1)CO2 (configuration not stated),.,0.63
CNC(=O)C1CCN(c2ccc(F)cc2)C1=O (configuration not stated),.,0.94
CCOc1ccc(CCn2c(C)c(C)c3c2ncn2nc(-c4ccccc4O)nc32)cc1OCC,0.05,0.69
COc1ccc(C2C(C#N)=C(N)OC3=C2C(=O)CC(c2ccc(Cl)cc2)C3)cc1 (configuration not stated),-1.2,.
Cc1ccccc1Nc1nc(-c2cccnc2)nc2ccccc12,-0.72,-1.4
Cc1ccc2oc3c(c(=O)c2c1)C(c1ccc(O)cc1)N(c1nccs1)C3=O (configuration not stated),-1.1,-0.15
COC(=O)c1cc2oc(C)cc2n1Cc1nc(-c2ccc(Cl)cc2)oc1C,-1.6,-0.93
CCOc1ccc(/C(O)=C2\C(=O)C(=O)N(CCCN(C)C)C2c2ccc(C)cc2)c(C)c1 (configuration not stated),-1.1,0.19

molecule,CDC25B-CDK2 inh,TAR Tat displ
CC1Cc2cc(S(=O)(=O)N3CCCC(C(=O)N(C)Cc4ccco4)C3)ccc2N1C(=O)C1CC1 (configuration not stated),.,1.1
O=C(Nc1ccc(Br)cc1F)C1CCN(S(=O)(=O)c2cccc3nonc23)CC1,-1.8,-0.11
O=C(O)c1c2c(nc3ccc(S(=O)(=O)N4CCC(C(=O)O)CC4)cc13)CCC2,1.3,.
Cc1cc(C)c(Cn2cccc2CNC(=O)Nc2ccc3c(c2)OCCO3)c(C)c1,.,-1.4
CCNC(=O)NCc1ccc2ncccc2c1,.,-1.9
COC(=O)Oc1ccc2c(=O)c(-c3ccccc3)coc2c1,1.3,1.9
Cc1ccc(/C(O)=C2\C(=O)C(=O)N(CCC(=O)O)C2c2ccc(C)cc2)cc1 (configuration not stated),0.35,.
CCN(CC)S(=O)(=O)N1CCCC(C(=O)NC2CCCCC2)C1 (configuration not stated),.,-0.16
O=S(=O)(c1ccc2nc(N3CCN(c4ccc(F)cc4)CC3)ccc2c1)N1CCCCC1,.,0.7
CCc1nn(CC(=O)NC2CCCCCC2)c(=O)c2cc3sccc3n12,-1.3,.
CS(=O)(=O)n1nc(-c2cccnc2)nc1NCc1cccs1,0.29,1.2
Clc1ccccc1Cn1c(-c2cccnc2)nc2ccccc21,-2.4,-2
O=C1C2CCCCC2C(=O)N1c1nc2nc(-c3ccccc3)cc(=O)n2[nH]1 (configuration not stated),-0.66,.
COc1ccc(NC(=O)NCc2noc3ccccc23)c(OC)c1,.,0.47
O=C(CN1C(=O)c2cccnc2Oc2ccccc21)N1CCN(C(=O)c2ccco2)CC1,.,-0.44
CC(c1ccccc1)n1c(=O)[nH][nH]c1=S (configuration not stated),-1.4,.
Cc1nc2nc(NCc3cc(F)cc(F)c3)[nH]n2c(=O)c1C,-1.9,0.82
CC(C)c1ccc2c(c1)CCC1[C@](C)(CN)CCC[C@]21C (some centres not stated),.,2.1
COc1ccc2cc1Oc1ccc(cc1)C[C@H]1c3c(cc4c(c3Oc3cc5c(cc3OC)CCN(C)[C@@H]5C2)OCO4)CCN1C,.,2.5
Cn1cnc(S(=O)(=O)N2CCCC(C(=O)Nc3ccc(F)cc3F)C2)c1 (configuration not stated),.,1.7

SMILES | CDC25B-CDK2 inh | TAR Tat displ
COc1ccccc1-c1nc(SCc2cc(=O)n3c4c(sc3n2)CCCC4)n[nH]1 | . | -0.88
CN(C)c1ccc(CN(CC2CCCO2)C(=O)c2cccs2)cc1 (configuration not stated) | 0.79 | 0.25
O=C(CN1C(=O)CSc2ccc(S(=O)(=O)N3CCCC3)cc21)N1CCCCC1 | . | 0.58
N/C(=N\O)c1cccc(CSc2ccccn2)c1 | -2.9 | .
CCc1cc2c(NC(C)C)ncnc2s1 | . | 1.7
COc1ccc(-c2cc(-c3ccc4c(c3)NC(=O)CO4)nc3c2COc2ccc(F)cc2-3)cc1 | -2.1 | -0.94
O=C(NCCCN1CCN(C2CCCCC2)CC1)C1=Cc2ccccc2OC1 | . | 1.6
O=C(C1CCN(c2ccc(-c3cccc(F)c3)nn2)CC1)N1CCC(N2CCCCC2)CC1 | . | -0.11
CN1CCN(c2ccccc2NC(=O)Nc2cn(C)c(=O)c3ccccc23)CC1 | . | -0.67
CC1CCc2c(oc3ccc(NS(=O)(=O)c4ccc(F)cc4)cc23)C1 (configuration not stated) | 0.75 | .
CCOC(=O)c1c(CN(C)CCO)n(C)c2cc(Br)c(OC(C)=O)cc12 | -1 | 1.2
Cc1[nH]c2ccccc2c1C1=CCN(S(=O)(=O)c2ccc3c(c2)CCCC(=O)N3)CC1 | . | -0.26
O=C(Cn1cc(S(=O)(=O)N2CCCC2)c(S(=O)(=O)N2CCCC2)c1)Nc1ccc(F)cc1 | . | 1.2
CC1=C(C(=O)Nc2cc(C(F)(F)F)cc(C(F)(F)F)c2)SCCO1 | -1.3 | .
CCCN1C(=O)C(Cc2nc3ccccc3c(=O)n2C)c2ccccc21 (configuration not stated) | -0.68 | 0.67
O=C(NCCCN1CCOCC1)C1CCN(Cc2noc3ccccc23)CC1 | . | 0.97
COCCOC(=O)c1c(C)oc2ccc(OC(=O)c3ccc(OC)cc3)cc12 | -2.8 | 2.6
O=C(NC1CCCCC1)C1CC(c2c(F)cccc2Cl)=NO1 (configuration not stated) | -0.85 | -1.3
COc1ccc(-c2nnc3ccc(SCc4cccnc4)nn23)cc1 | -1.5 | .
CC1CCCC(NC(=O)C2CCN(C(=O)c3cc4sccc4n3C)CC2)C1C (configuration not stated) | -0.72 | -0.7
CCOC(=O)c1c(S(=O)(=O)N2CCC(N(C)C3CCCCC3)CC2)c(C)n(C)c1C | . | 2.3
O=C(c1ccco1)N1CCN(c2nc3ccccc3c(=O)n2-c2ccccc2)CC1 | 0.54 | .
O=C(O)CN1C(=O)C2CC=CCC2C1=O (configuration not stated) | -0.66 | 0.65
O=C(Cn1cnc(S(=O)(=O)N2CCc3ccccc32)c1)N1CCN(c2ccccc2)CC1 | . | 1
O=C1c2ccccc2C(=O)N1CCCCN1CCN(C(c2ccccc2)c2ccccc2)CC1 | 0.35 | .

SMILES | CDC25B-CDK2 inh | TAR Tat displ
COc1ccc(-c2cc(=O)c3c(ccc4ccccc43)o2)cc1 | -0.87 | .
O=C(c1ccc(CS(=O)c2ccccc2Cl)o1)N1CCOCC1 (configuration not stated) | . | 1.4
COc1ccc(-c2n[nH]c(C)c2-c2ccccc2)c(O)c1C | 0.36 | .
CCCSc1ncccc1C(=O)Nc1cc(C(C)(C)C)sc1C(C)=O | -1.3 | .
CCS(=O)(=O)N1CCN(C(=O)c2cc(C)[nH]n2)CC1 | . | -0.29
O=S(=O)(c1cccc2nsnc12)N1CCCC1c1ccc(F)cc1 (configuration not stated) | 0.43 | 0.57
N/C(COc1ccc2nonc2c1)=N\O | -1.2 | .
COc1cccc(Nc2nc(N)c([N+](=O)[O-])c(Nc3ccc(F)cc3)n2)c1 | . | -0.45
N#Cc1cccc(C#N)c1Oc1ccc(N)cc1 | -1.4 | .
O=C1CCc2cc(NS(=O)(=O)c3ccccc3Br)ccc2N1 | . | -0.06
COC(=O)c1ccc(NC(=O)CSc2ncnc3sc4c(c23)CCC4)cc1 | -0.96 | .
Cn1c(N2CCN(c3ccccn3)CC2)nc2c1c(=O)n(Cc1ccc(Cl)cc1)c(=O)n2C | -0.77 | .
CNC(=O)c1c(NC(=O)c2ccco2)sc2c1CCC2 | . | -0.54
Cc1nn(C(C)C(=O)NCCN2CCCC2)c(=O)c2c1sc1ccccc12 (configuration not stated) | -2.5 | -2.7
Cc1cc(C)n(-c2nc(N(C)C)nc(N3CCOCC3)n2)n1 | -1.7 | 1.1
COC(=O)c1ccc(C2CC(=O)NC3=C2C(=O)CC(c2cc(OC)ccc2OC)C3)cc1 (configuration not stated) | 0.5 | 1.2
O=C(C1CCCN(c2nc3ccccc3n3cccc23)C1)N1CCN(c2ccccn2)CC1 (configuration not stated) | . | 1.1
O=C1C(Cc2ccc(-c3nn[nH]n3)cc2)=C(c2ccccc2)S(=O)(=O)c2ccccc21 | -2.7 | .
Cc1cc(NC(=O)c2c(-c3c(Cl)cccc3Cl)noc2C)n(C)n1 | -1.9 | .
Cc1csc(NC(=O)Nc2cc(F)ccc2F)n1 | -1.9 | 3.1
Cc1cccc2nc(CSC3=Nc4ccccc4C4=NC(c5ccccc5)C(=O)N34)cc(=O)n12 (configuration not stated) | -2.1 | .
CCOC(=O)C1CCN(c2c(NCCN3CCOCC3)c(=O)c2=O)CC1 | -1.6 | 3.3
Cc1ccc(C(Nc2cccc(C)n2)c2ccc3cccnc3c2O)cc1 (configuration not stated) | -0.36 | 0.3
Cc1ccc(-c2cnnc(-n3nc(C)c4c3NC(=O)CC4c3ccc(C)c(C)c3)n2)cc1 (configuration not stated) | . | 1.1
CCOC(=O)c1nc2ccccc2oc1=O | -0.17 | -0.96

SMILES | CDC25B-CDK2 inh | TAR Tat displ
CCOC(=O)C1=NNC(C(=O)c2ccccc2)C1c1ccc(Br)cc1 (configuration not stated) | -1.1 | -0.44
COc1ccc(CNS(=O)(=O)c2cccs2)cc1 | -2.6 | -1.1
COc1ccc(-c2cn3c4ccccc4nc3n2CCN2CCOCC2)cc1 | -0.03 | .
COc1ccccc1-c1nnc(-c2ccccc2Cl)o1 | -0.03 | -0.17
CCCC(C(=O)NC1CCCCC1)N1Cc2ccccc2C1=O (configuration not stated) | . | 1.4
CCOC(=O)N1CCN(/[N+]([O-])=N/Oc2ccc([N+](=O)[O-])cc2[N+](=O)[O-])CC1 | 0.08 | .
O=C(Nc1ccc(F)cc1)c1noc2ncnc(N3CCCC3)c12 | . | -0.69
COc1ccc(-c2nn3c(=O)cc(COc4ccccc4)nc3s2)cc1 | -1.4 | -1
Cc1cc(Nc2cccc3c2OCO3)c2ccccc2n1 | -1.4 | .
CCN(CC)c1nc(NCc2cccc(Cl)c2)c2cnn(C)c2n1 | . | 0.7
Brc1ccc(-c2cnc3ccccc3n2)s1 | 0.69 | .
CC[C@@]1(O)C(=O)OCc2c1cc1n(c2=O)Cc2cc3c(CN(C)C)c(O)ccc3nc2-1 | -0.02 | -6.8
Cc1ccc2nc(-c3sc4ccccc4c3Cl)oc(=O)c2c1 | -0.47 | .
Fc1ccc(NC(c2ccc(F)cc2)c2nnc(-c3ccccc3)o2)cc1 (configuration not stated) | -2.1 | 2.7
O=c1[nH]c(-c2cccc(O)c2)nc2c1Cc1cc(Br)ccc1O2 | -1.7 | 1.6
CC(=O)Nc1cc2cc(NC(=O)c3c(-c4c(F)cccc4Cl)noc3C)ccc2oc1=O | -1.3 | .
NC(=O)C1(N2CCCCC2)CCN(S(=O)(=O)c2ccc3c(c2)OCC3)CC1 | 0.56 | .
Cc1ccccc1Nc1cc(C)c2ccc(O)cc2n1 | -0.56 | 2
COCCNC(=O)c1nn2c(c1Br)NC(c1cccs1)CC2C(F)(F)F (configuration not stated) | -2 | 0.95
O=c1[nH]c2ccc(S(=O)(=O)Nc3cc(Cl)ccc3O)cc2o1 | -1.1 | -7.9
O=C(c1cc2ccccc2o1)N1CCN=C1SCc1ccccc1F | -1.5 | .
O=C(Cn1nc2c(cc1=O)CCCC2)Nc1ccc2c(c1)OCO2 | . | 6.2*
CC1(C)CC(=O)C2=C(C1)NC1=C(C(=O)CC(C)(C)C1)C2c1ccc(O)cc1 | . | 0.06

# Laid out differently: 13 of the compounds above.
# Order of results: CDC25B-CDK2 inh, TAR Tat displ
> Brc1ccc(-c2cnc3ccccc3n2)s1
→ 0.69, .
> CC[C@@]1(O)C(=O)OCc2c1cc1n(c2=O)Cc2cc3c(CN(C)C)c(O)ccc3nc2-1
→ -0.02, -6.8
> Cc1ccc2nc(-c3sc4ccccc4c3Cl)oc(=O)c2c1
→ -0.47, .
> Fc1ccc(NC(c2ccc(F)cc2)c2nnc(-c3ccccc3)o2)cc1 (configuration not stated)
→ -2.1, 2.7
> O=c1[nH]c(-c2cccc(O)c2)nc2c1Cc1cc(Br)ccc1O2
→ -1.7, 1.6
> CC(=O)Nc1cc2cc(NC(=O)c3c(-c4c(F)cccc4Cl)noc3C)ccc2oc1=O
→ -1.3, .
> NC(=O)C1(N2CCCCC2)CCN(S(=O)(=O)c2ccc3c(c2)OCC3)CC1
→ 0.56, .
> Cc1ccccc1Nc1cc(C)c2ccc(O)cc2n1
→ -0.56, 2
> COCCNC(=O)c1nn2c(c1Br)NC(c1cccs1)CC2C(F)(F)F (configuration not stated)
→ -2, 0.95
> O=c1[nH]c2ccc(S(=O)(=O)Nc3cc(Cl)ccc3O)cc2o1
→ -1.1, -7.9
> O=C(c1cc2ccccc2o1)N1CCN=C1SCc1ccccc1F
→ -1.5, .
> O=C(Cn1nc2c(cc1=O)CCCC2)Nc1ccc2c(c1)OCO2
→ ., 6.2*
> CC1(C)CC(=O)C2=C(C1)NC1=C(C(=O)CC(C)(C)C1)C2c1ccc(O)cc1
→ ., 0.06
